Bfl-1 A1 inh – inhibitors of the anti-apoptotic protein A1, read as caspase activation; 0.066% of 330,000 active; MEF A1-2A-BIM cells, Caspase-Glo 3/7 luminescence, 3 h; percent of clofoctol response, vehicle zero; caspase activation, % (test concentration not listed);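 active means over half of replicate activation scores above 10%, or exactly half above 10 with the replicate mean above 10; inconclusive means replicate mean below 10 yet half the replicates above 10; inactive means over half of replicates below 10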;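 further: wells of about 30 µL received 50 nL stock; many hits fall short of the cut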
RanGTP-Imp inh – disruptors of Ran-importin-beta complex formation – biochemical, FRET, CFP-Ran, YFP-importin-beta, homogeneous, primary screen. cell-free CFP-Ran/YFP-importin-beta FRET ratio. inhibition, % (concentration not given with the values). 1.1% of 300,000 active;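 active means most replicates above 15%; inconclusive means exactly half above 15%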;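 further: 0% = DMSO wells and 100% = Ran loaded with GDP instead of GTP; wells of about 40 µL received 100 nL stock; the first replicate is given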
Vif TR-FRET – HIV-1 Vif–A3G interaction blockers – biochemical, TR-FRET, GST-Vif 1-94, biotin-A3G peptide, dose response retest, primary screen (AID 1117319) | inhibition, %, or IC50 in µM where a hit was titrated | 0.57% of 260,000 active | TR-FRET GST-Vif / biotin-A3G peptide binding; higher % means a stronger effect; test concentration not given here; strong numbers were not always called active;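 active means above the screen mean plus three standard deviations and confirmed in dose response; inconclusive means results disagree or hit not tested in dose response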;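 further: Vif residues 1-94 fused to GST binding biotinylated APOBEC3G peptide 110-148; 0% = full assay without inhibitor and 100% = GST in place of GST-Vif; retest series ran down from 100 µM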
Beta cell apopt – blocks beta cell apoptosis; INS-1E cytokine-induced death, ATP luminescence, 48 h; percent of positive-control rescue, neutral wells zero; 0.8% of 300,000 active; protection from apoptosis, % (test concentration not listed);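 active means all replicates at 75% or more, or half of them and the mean; inconclusive means half reach 75% but not the mean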;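 further: 0% = cytokine-treated negative control wells and 100% = positive control rescue; higher means more ATP so stronger rescue from cytokine killing; wells of about 40 µL received 100 nL stock; the first replicate is given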
Calb FLC – affects C. albicans growth with fluconazole. C. albicans CaCi-2 (fluconazole-resistant clinical isolate) + fluconazole, Alamar Blue growth, 48 h. growth inhibition, % (concentration not given with the values). 0.57% of 300,000 active;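 active means most replicates above 75%; inconclusive means exactly half above 75%; inactive means most below 75%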;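 further: all wells also contain fluconazole at 8 µg/ml as a sub-toxic cotreatment; 0% = median of DMSO wells and 100% = median of geldanamycin control wells; wells of about 8 µL received 7.5 nL stock; the first replicate is given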
MLL AF4-AF9 inh – inhibitors of human MLL-AF4/AF9 interaction | inhibition, % at 10 µM | P42568 | AlphaScreen, biotin-AF4 peptide binding to FLAG-AF9 | 0.47% of 350,000 active;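 active means every replicate reaching a set inhibition limit, whatever the replicate mean, cut at about 25% in these data; inconclusive means mean inhibition reaches that limit but some replicates miss it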;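 further: 0% = plate neutral control median and 100% = total signal loss; the record names both 10 and 1 µM as test concentration; the first replicate is given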
Target sequence (P42568 whole entry, looked up): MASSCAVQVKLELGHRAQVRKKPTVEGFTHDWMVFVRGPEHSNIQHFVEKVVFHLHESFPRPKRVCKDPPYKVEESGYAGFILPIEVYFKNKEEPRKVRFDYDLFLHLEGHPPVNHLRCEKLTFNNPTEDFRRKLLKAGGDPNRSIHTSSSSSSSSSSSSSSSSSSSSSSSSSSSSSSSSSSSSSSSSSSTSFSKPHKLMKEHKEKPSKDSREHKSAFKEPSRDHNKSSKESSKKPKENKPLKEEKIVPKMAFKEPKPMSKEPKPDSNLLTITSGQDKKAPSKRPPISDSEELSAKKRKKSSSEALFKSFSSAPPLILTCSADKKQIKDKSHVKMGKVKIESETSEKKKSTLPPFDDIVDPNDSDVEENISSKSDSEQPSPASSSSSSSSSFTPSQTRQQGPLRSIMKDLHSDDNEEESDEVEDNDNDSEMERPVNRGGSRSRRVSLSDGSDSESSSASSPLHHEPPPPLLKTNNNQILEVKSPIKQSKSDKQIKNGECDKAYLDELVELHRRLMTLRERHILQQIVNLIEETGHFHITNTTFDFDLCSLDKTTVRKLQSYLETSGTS
Ecoli rRNA inh – inhibits bacterial ribosomal RNA function over humanized ribosomes. E. coli WT GFP vs humanized-ribosome RFP mutants, fluorescence, 24 h; stronger effect = lower value; DMSO median 0, no signal -100. GFP signal change (wild-type ribosome), % (no concentration beside the values). 1.6% of 350,000 active;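 active means significant combined selectivity score with lowered wild-type GFP, culture density cut under 30%, mutant RFP and density less affected; inactive means any of these conditions unmet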; further: one replicate is shown; some compounds called inactive have numbers as strong as hits
T cruzi repl – blocks replication of Trypanosoma cruzi; T. cruzi beta-gal in NIH3T3, luminescence, 90 h; inhibition, % (no concentration beside the values); 1.4% of 300,000 active; AID 1885;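 active means mean inhibition across valid replicates above about 55%, limit read from the data; inconclusive means mean below that limit but half or more replicates reach it; inactive means mean below it, under half of replicates reach it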;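 further: signal also drops with host cell toxicity which is not excluded here; 0% = plate median of DMSO wells and 100% = zero luminescence signal; higher percent means less beta-gal luminescence so fewer parasites; stock transfer was 50 nL into about 50 µL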
Ecoli rRNA inh OD600 – further read-out of Ecoli rRNA inh, marked with its call; OD600 change, %; measured here: OD600 growth;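 optical density of the mix in the first replicate; 0 = DMSO median and -100 = no signal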
Ecoli rRNA inh RFP – second read-out of Ecoli rRNA inh, no call of its own (marks repeat the call); RFP signal change, %; measured here: RFP humanized mutant strains;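 first replicate; 0 = DMSO median and -100 = no signal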
Active calls of the source: *; u = inconclusive; x = not tested or not shown; & = joins results of further samples. The list is partial; rates above refer to the full screens.

SMILES	Bfl-1 A1 inh	RanGTP-Imp inh	Vif TR-FRET	Beta cell apopt	Calb FLC	MLL AF4-AF9 inh	Ecoli rRNA inh	Ecoli rRNA inh OD600	Ecoli rRNA inh RFP	T cruzi repl
COc1ccccc1C(=O)NNC(=O)c1ccccc1	-6.5	0.0	x	x	0	2.2	4	14	0.3	0
COc1cc(CNCCCN2CCOCC2)cc(Br)c1OCc1ccc(Cl)cc1	0.8	u	x	19	1	12	-58	-80	-22	59*
COc1ccccc1CN=C1NC(=O)C(CC(=O)Nc2ccc(OC)c(OC)c2)S1 (stereo unspecified)	1.2	-3.5	9%	0	-16	x	x	x	x	-10
COc1cccc(CN2CCN(Cc3cccc(Br)c3)CC2)c1OC	-0.8	0.7	-6%	0	-3	5.7	-2	-12	3.2	24
O=C1CCC(N2C(=O)c3ccccc3C2=O)C(=O)N1 (stereo unspecified)	-0.4	1.9	33%	3	x	-0.7	x	x	x	-8
O=C(CCl)Nc1ccc2c(c1)OCO2	0.7	2.3	6%	x	-4	2.4	13	12	3.2	-3
Cc1cc(C(=O)NNC(=O)c2cccc(S(=O)(=O)N3CCOCC3)c2)c2ccccc2n1	-0.9	2.0	-3%	x	14	-0.8	-2	6	-4.4	-12
Cn1c(=O)c(C(=O)COC(=O)c2cc(C(F)(F)F)nc3ccccc23)c(N)n(Cc2ccccc2)c1=O	0.2	4.3	32%	11	20	-3.0	8	8	-1.1	39
CCOc1ccc2[nH]c3nc(SCC(=O)OC(C)C)nnc3c2c1	0.3	-1.9	x	-4	-11	1.0	19	7	1.2	2
COc1ccc(Oc2coc3cc(OC(=O)/C=C/c4ccccc4)ccc3c2=O)cc1	-0.5	-4.7	6%	-4	5	0.3	9	5	-3.2	-20
Cc1[nH]c(=O)[nH]c(=O)c1Cc1cccc2ccccc12	-0.6	0.4	-3%	-1	41	-1.0	8	-4	-5.1	-8
CC1(C)SCC(C(=O)O)N1C=O (stereo unspecified)	0.1	4.8	6%	-5	11	x	x	x	x	-1
O=C(C1CC1)N1CCCN(C(=O)C2CC2)CC1	2.0	3.1	u	-8	-17	x	x	x	x	3
COCC(C)NC(C(=O)Nc1ccc(C)c(Cl)c1)c1ccccc1 (stereo unspecified)	0.1	u	u	0	-8	x	x	x	x	4
Cc1ccc(N2C(N)=C(C#N)C(c3cccs3)C3=C2CC(C)(C)CC3=O)cc1 (stereo unspecified)	0.3	-3.9	11%	-7	2	x	x	x	x	13
CC(=O)NCC(=O)NC1(C(=O)NC2CCCC2)CCCCC1	-1.4	5.1	20%	-18	-33	x	x	x	x	-1
CC(=O)Nc1nnc(S(=O)(=O)N2CCN(c3ccc([N+](=O)[O-])cc3Cl)CC2)s1	1.3	-0.3	x	2	27	1.1	-18	-13	1.9	11
Nc1ncnc(NCc2ccc(F)cc2)c1[N+](=O)[O-]	3.0	1.9	-6%	-24	2	-2.3	23	23	4.0	-11
COc1cccc(CNC(=O)C(=O)NCC(c2ccco2)N2CCOCC2)c1 (stereo unspecified)	0.5	-7.3	5%	-6	1	x	x	x	x	5
CCc1cccc(CC)c1NC(=O)COC(=O)/C(C#N)=C/c1ccc(OC)cc1	0.7	-2.4	-6%	-15	17	-2.2	x	x	x	-11
CC(=O)N/C(=C\c1ccc(F)cc1)C(=O)N(C)C	-0.6	2.3	-4%	-1	3	x	x	x	x	-11
C=CCN(CC=C)S(=O)(=O)c1ccc(NC(=S)NC(=O)c2ccc(-c3ccccc3)cc2)cc1	-0.1	2.8	-2%	10	-8	x	x	x	x	4
Cc1c(C(=O)O)sc2nc3n(c(=O)c12)CCC(C)CC3 (stereo unspecified)	0.7	-0.9	0%	-2	-20	5.5	1	-4	-5.9	15
Cc1cc(CNC(=O)COc2ccc(F)cc2F)c2ccccc2n1	-0.5	-2.4	6%	11	27	-0.6	-5	-5	-0.1	-4
COc1cc(OC)cc(-c2c(C#Cc3ccsc3)c3cc(-c4ccccc4OC)ccc3n2C)c1	2.1	x	x	-7	x	-14	4	15	0.3	x
CC(NC(=O)c1ccccc1NC(=O)c1ccncc1)c1ccccc1 (stereo unspecified)	-0.8	-2.6	8%	-4	4	3.7	-3	4	-1.8	-5
Cc1onc(-c2c(F)cccc2Cl)c1C(=O)N(C)C1CCCCC1	-0.4	-1.1	-1%	2	-8	1.6	6	-8	3.5	3
O=c1oc2ccccc2cc1-c1nc2c(s1)CCc1ccccc1-2	-0.8	3.5	x	-11	5	x	x	x	x	-13
CCn1nc(NS(=O)(=O)c2ccc(F)cc2)c2cc3cccc(C)c3nc21	-0.2	-0.9	x	x	-1	-1.9	5	-23	-0.7	-10
CCC1=Nc2cc(C(=O)O)ccc2Sc2ccccc21	0.6	2.0	15%	-10	-2	-0.2	-7	-9	-1.4	-14
O=C1c2ccccc2C(=O)c2c1cccc2N(CCO)CCO	0.0	-8.9	2%	2	-2	28*	-24	-19	8.8	-13
O=C(Cc1ccc(F)cc1)Nc1ccccc1Sc1ccccc1	0.4	-5.8	-2%	3	-5	-25	-22	-31	-12	11
COc1cc(C)c(Br)cc1S(=O)(=O)NCc1cccs1	0.0	0.6	4%	2	12	0.8	-18	-31	-2.4	0
CCOc1ccccc1N(CC(=O)NCc1ccc(OC)cc1)S(C)(=O)=O	-0.4	-0.7	10%	x	3	x	x	x	x	1
O=C(CN1CCN(CC(=O)Nc2ccc3c(c2)OCO3)CC1)Nc1ccc(F)cc1	0.1	0.8	65%	x	1	x	x	x	x	15
O=C(Nc1cccc(F)c1)N1C2CCC1CC(O)(c1cccnc1)C2 (stereo unspecified)	0.4	0.8	x	-5	3	-0.3	x	x	x	-14
Cn1nc(C(C)(C)C)cc1NC(=O)Nc1ccc(F)cc1F	0.5	9.1	4%	-10	-2	0.3	2	11	4.5	2
CCOc1ccc(C(NC(C)=O)c2ccc(OC)c(OC)c2)cc1 (stereo unspecified)	-0.1	0.5	-3%	2	-5	0.2	15	8	5.9	6
O=C(COC(=O)COc1ccc(Cl)cc1)Nc1ccc2c(c1)OCCO2	-0.3	x	-1%	-3	x	0.2	3	10	-1.1	x
Clc1ccccc1/C=N/Nc1cc(N2CCOCC2)ncn1	1.4	1.2	x	-4	-2	-3.3	4	4	-5.3	0
Cn1c(CNC(=O)C(Cc2ccccc2)NC(=O)c2ccccc2F)cc(=O)n(C)c1=O (stereo unspecified)	-0.6	3.5	x	0	x	-1.3	6	5	1.9	6
O=C(Nc1ccc2oc(-c3ccncc3)nc2c1)c1cccs1	-0.5	4.4	-3%	6	26	x	x	x	x	-17
O=C(CCCN1Cc2ccccc2C1)c1ccc(F)cc1	-0.3	3.3	-6%	0	-3	-9.0	12	-4	-1.1	-1
COc1ccccc1N1CC(C(=O)OCc2nc(N)nc(Nc3ccccc3)n2)CC1=O (stereo unspecified)	0.5	x	15%	-1	x	1.4	1	6	-0.6	x
Cc1ccc(CNC(=O)CCCN2C(=S)NC(C)(C)CC2C)cc1 (stereo unspecified)	-1.7	-4.7	x	-5	-3	-0.7	2	-2	0.2	-7
CCCN1C(=O)/C(=N\OCC(=O)Nc2ccc(C(C)C)cc2)c2ccccc21	0.0	2.3	12%	-1	-10	6.7	x	x	x	20
CN(C(=O)COc1ccc(Oc2ccccc2)cc1)C1CCS(=O)(=O)C1 (stereo unspecified)	-0.4	4.0	x	-5	-10	-0.3	-14	-11	1.8	15
CC1=C(C(=O)Nc2ccccc2)C(c2ccccn2)n2nc(CCCO)nc2N1 (stereo unspecified)	0.7	3.7	x	-5	-3	11	6	8	-1.7	-11
COc1ccccc1NS(=O)(=O)c1ccc(N/N=C/c2c(C)nn(-c3ccccc3)c2N2CCCC2)c([N+](=O)[O-])c1	0.6	6.9	x	9	8	x	x	x	x	66*
CC(C)(C)n1nc2c(c1NC(=O)Cc1ccc(F)cc1)CS(=O)(=O)C2	-1.2	0.4	x	-6	3	-0.9	5	14	-1.1	1
COc1ccc(-c2nn(-c3ccccc3)cc2/C=C/C(=O)O)cc1[N+](=O)[O-]	1.1	1.8	1%	-7	19	-24	5	1	4.0	12
O=C(NCc1ccco1)c1cccc(NC(=O)c2ccco2)c1	-0.5	1.8	6%	-2	14	x	x	x	x	-37
CSc1ccc(S(=O)(=O)N2CCC(C(=O)NCCCn3ccnc3)CC2)cc1	1.6	1.6	x	-5	37	5.1	6	6	1.9	17
Cc1ccc2cccc(OCC(=O)N(C)CC(=O)Nc3ccc(F)cc3)c2n1	-0.4	x	-15%	-3	x	-2.8	4	5	1.1	x
Cc1cccc(C)c1NC(=O)NNC(=O)c1cc(C(C)(C)C)nn1Cc1ccccc1	0.3	5.7	-5%	-3	-8	-1.7	15	11	1.0	9
Cc1cccc(/C=c2\s/c(=C\C(=O)C(C)(C)C)[nH]c2=O)c1	-0.6	-0.5	-5%	7	3	x	x	x	x	0
CCCC(c1nnnn1Cc1ccco1)N1CCC(C(N)=O)CC1 (stereo unspecified)	0.4	-1.9	8%	-1	-3	x	x	x	x	3
COc1cc(/C=C/C(=O)NCCN2CCOCC2)cc(OC)c1OC	-0.4	4.4	x	-2	14	x	x	x	x	-4
COc1ccc(C(C)C)cc1S(=O)(=O)n1ccnc1C	1.0	-6.1	u	8	1	x	x	x	x	-5
CC(=O)c1ccc(OCc2cc(C(=O)NCCn3nc(C)cc3C)no2)cc1	0.6	-5.5	x	-2	6	-1.8	2	-7	0.7	1

The list continues:
SMILES	Bfl-1 A1 inh	RanGTP-Imp inh	Vif TR-FRET	Beta cell apopt	Calb FLC	MLL AF4-AF9 inh	Ecoli rRNA inh	Ecoli rRNA inh OD600	Ecoli rRNA inh RFP	T cruzi repl
Cc1cc(NC(=S)N(CCN2CCCCC2)Cc2ccco2)ccc1Cl	1.7	3.8	-1%	x	-10	8.7	-23	-21	18	-7
O=C(COc1ccc2ccc(=O)oc2c1)N1CCN(c2ccccc2)CC1	1.0	-0.1	-2%	-6	6	-2.4	-5	7	-1.2	1
Cc1cc(C)n(-c2ccc(C(=O)OCC(=O)Nc3ccccc3F)cc2)n1	-0.1	x	x	-4	x	0.4	6	10	0.6	x
CCS(=O)(=O)CCn1c([N+](=O)[O-])cnc1C	-0.6	7.0	u	-4	x	-4.6&-4.8	x	x	x	7
CN(C)S(=O)(=O)N1CCc2ccc(NC(=O)c3ccc(C(F)(F)F)cc3)cc2C1	0.0	3.9	x	-3	9	-6.7	-1	-10	0.3	2
CCc1nc(SCC(=O)NCc2ccco2)c2c3c(sc2n1)CCCC3	0.0	-1.5	-35%	3	5	x	x	x	x	9
CCN(CC)c1cc(C)c(C#N)c2nc3ccccc3n12	0.1	32*	x	0	-18	-0.6	0	4	-1.6	-2
Cc1noc(C)c1CSc1ccc(Br)cc1	-0.2	7.3	9%	-5	30	-35	-5	-8	0.2	6
